Assay outcomes from PubChem.
Menin MLL FP FL = qHTS Assay for Inhibitors Targeting the Menin-MLL Interaction in MLL Related Leukemias: Competition With Fluorescein Labeled MLL-derived Peptide. Fluorescence polarization, fluorescein-MLL peptide displacement from menin. FP activity change, % at 61.4 µM. 290,000 tested, under 10 active. AID 1766, 2009; inconclusive = falling polarisation curve, or a change in total fluorescence; inactive = total fluorescence flat and polarisation flat or rising; no compound was filed as active; the % refers to the polarisation; negative = inhibition;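 further: % of control where 0% means no effect; inhibitors lower the polarisation; unlabelled MLL peptide was the positive control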
gsp antagonist = qHTS for Antagonists of gsp, the Etiologic Mutation Responsible for Fibrous Dysplasia/McCune-Albright Syndrome: qHTS | gsp-mutant cells, cAMP HTRF, 30 min; control for the full effect not named in the record | actives 0.4% (n = 340,000) | AID 624288, 2012 | Potency, µM (highest dose often 76.9 µM), for inactives: at the highest dose activity change, negative = inhibition, actives largely listed as inhibitors; active = falling curve of any shape with a large fitted effect; inconclusive = falling curve, mostly with a smaller effect; inactive = flat or rising curve; cell line not stated here;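 further: intracellular cAMP measured with PDE inhibitor Ro 20-1724 present during compound exposure; potency means the concentration at half of the fitted maximal effect; on the % scale 0 is the no-effect control and ±100 the full control effect; nearly all actives have a fitted effect of over 65% in size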
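HTRF cAMP read-out (cAMP-d2 plus anti-cAMP antibody-K in lysis buffer, 30 min RT). Before lysis, cells are exposed to compounds with […] for 30 min at 37C in DPBS containing Ca/Mg, BSA and Tween 20.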
TRPML1 ag = qHTS for Agonists of the Human Mucolipin Transient Receptor Potential 1 (TRPML1); actives 0.12% (n = 410,000); AID 624414, 2012; activation, % (test concentration not listed); Mucolipin-1 (Homo sapiens), Q9GZU1; TRPML1-expressing cells, Ca2+ dye fluorescence, FDSS; host cell line not named in the record; reference of the full effect not given here; in the data active = activation above about 50%; inconclusive = about 30% to 50%; inactive = below about 30%; further: 0% is about no effect; the text of the record puts the active cut at 80%
Target sequence (Q9GZU1 whole entry, looked up): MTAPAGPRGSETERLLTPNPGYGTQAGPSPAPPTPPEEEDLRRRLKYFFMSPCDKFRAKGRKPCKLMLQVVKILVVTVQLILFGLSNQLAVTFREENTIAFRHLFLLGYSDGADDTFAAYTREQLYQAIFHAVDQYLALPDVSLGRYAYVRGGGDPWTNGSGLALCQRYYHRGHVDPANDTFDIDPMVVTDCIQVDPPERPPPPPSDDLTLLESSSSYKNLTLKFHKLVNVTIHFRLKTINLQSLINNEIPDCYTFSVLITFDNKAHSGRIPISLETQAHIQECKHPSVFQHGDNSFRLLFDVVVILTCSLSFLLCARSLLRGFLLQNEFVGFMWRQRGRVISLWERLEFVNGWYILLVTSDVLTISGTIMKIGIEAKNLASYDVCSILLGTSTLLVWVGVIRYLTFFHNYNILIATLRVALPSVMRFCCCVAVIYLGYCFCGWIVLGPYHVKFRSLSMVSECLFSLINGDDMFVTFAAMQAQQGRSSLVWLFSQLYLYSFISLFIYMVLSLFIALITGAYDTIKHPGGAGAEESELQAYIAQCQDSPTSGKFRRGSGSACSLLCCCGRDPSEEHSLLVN
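In this qHTS format, compounds were pin-transferred onto Ca8-dye-loaded TRPML1-DL cells induced with Tet overnight, and intracellular Ca2+ fluorescence was recorded kinetically for 110 s after a 10 s baseline. A subsequent 4uM final 54-4 (EC80) addition followed by a second 110 s read served as the antagonist phase.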
TRPML1 blocker = qHTS for Inhibitors of the Human Mucolipin Transient Receptor Potential 1 (TRPML1) | actives 0.02% (n = 390,000) | TRPML1-inducible cells, Ca2+ dye fluorescence, FDSS; hits give low values; inhibition of EC80 agonist-evoked calcium signal | activity change, negative = inhibition, % (no concentration beside the values) | Mucolipin-1 (Homo sapiens), Q9GZU1; in the data active means activity change below about -50%; inconclusive means about -30% to -50%; inactive means above about -30%;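 further: stimulus is agonist 54-4 at its EC80 concentration; on the % scale 0 is the no-effect control and ±100 the full control effect; compound concentration not given in the record; the text of the record puts the active cut at -80%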
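Calcium fluorescence in TRPML1-DL cells induced overnight with Tet: a 110 s read after compound pin addition, then a 110 s antagonist read after challenge with 54-4 at 4 uM final (EC80).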
gsp agonist = qHTS for Agonist of gsp, the Etiologic Mutation Responsible for Fibrous Dysplasia/McCune-Albright Syndrome: qHTS. gsp mutant cells, cAMP HTRF, 30 min; control for the full effect not named in the record. Potency, µM (top dose mostly 76.9 µM), for inactives: at the highest dose activation (cAMP increase), usual class: activators. actives 0.13% (n = 340,000). AID 624287, 2012; active = well fitted activation curve with a large enough effect; inconclusive = small, poorly fitted or top-dose-only effect, or another doubt; inactive = no such curve, though single readings can be large or run the other way; cell line not stated here;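 further: phosphodiesterase inhibitor Ro 20-1724 added with compounds to block cAMP breakdown; potency means the concentration at half of the fitted maximal effect; nearly all actives have a fitted effect of over 60% in size; about a fifth of the inactives were tested at one dose only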
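Cells stably selected in G418 were plated at 2000/well, grown 16-24 hr, then given compounds in DMSO with the PDE inhibitor […] (300 uM solution added) for 30 min at 37C; cAMP was read by HTRF.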
ClpP mod = qHTS Assay for Activators of ClpP; ATP-dependent Clp protease proteolytic subunit (Bacillus subtilis (strain 168)), P80244; purified B. subtilis ClpP, FRET peptide cleavage, 20 min; Potency, µM (series often up to 57.5 µM), inactives show at the highest dose activity change, negative = active; actives 1.9% (n = 340,000); AID 651965, 2013; active = well fitted falling curve with a large enough effect; inconclusive = small, poorly fitted or top-dose-only effect; inactive = no such curve, though single readings can be large or run the other way; further: potency means the concentration at half of the fitted maximal effect; the source files actives as falling curves though it sought activators and does not explain the sign; nearly all actives have a fitted effect of over 65% in size; many hits overshoot -100%
Target sequence (P80244 whole entry, looked up): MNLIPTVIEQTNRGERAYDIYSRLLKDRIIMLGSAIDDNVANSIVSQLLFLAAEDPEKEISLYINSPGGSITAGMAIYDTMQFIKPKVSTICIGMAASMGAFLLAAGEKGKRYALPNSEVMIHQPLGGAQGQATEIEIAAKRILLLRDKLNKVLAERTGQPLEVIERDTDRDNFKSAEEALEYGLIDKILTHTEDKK
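FRET quenching reversal measured ClpP activation: 10 microg/mL B. subtilis ClpP at pH 8 with the FRET-FV decapeptide, read at 430 nm after 320 nm excitation. The 20-min minus 0-min signal was scaled between DMSO/no-enzyme wells and ADEP (5.8 microM final).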
The depositor's hits bear a star; [ ] = dose if it differs, or a comment.

What do the screens show for `CCc1ccccc1NC(=O)C(=O)NCCc1sc(-c2cccc(C)c2)nc1C`?
TRPML1 ag: 2.6; TRPML1 blocker: 9.8; ClpP mod: 107.7%

How did c1ccc(CNC2CC3CCC2C3)cc1 (stereo unspecified) do in these assays?
gsp antagonist: -1.9%; TRPML1 ag: -0.7; TRPML1 blocker: 4.6; gsp agonist: 1.1%

What do the screens show for `CC(=O)N1c2ccc3ccccc3c2C(C)CC12CCCCC2` (stereo unspecified)?
Menin MLL FP FL: -0.9; gsp antagonist: -1.7%; TRPML1 ag: 0.8; TRPML1 blocker: -4.4; gsp agonist: -38.2%[inhibitor]; ClpP mod: -7.6%

What do the screens show for `CN(C)C(=O)CCc1ccc2c3c([nH]c2c1)[C@]1(CCc2ccccc2)[C@@H](C(=O)N2CCCCC2)C[C@H](CC(=O)NC(C)(C)C)C(=O)N1CC3`?
gsp antagonist: -12.9%; TRPML1 ag: 1.1; TRPML1 blocker: -0.1; ClpP mod: -3.1%

How did Cc1ccccc1C(=O)NN1C(=O)CSC1=S do in these assays?
Menin MLL FP FL: 9.2; gsp antagonist: 9.2%; TRPML1 ag: 1.3; TRPML1 blocker: 0.2; gsp agonist: -3.1%[15.4 µM]; ClpP mod: -4.4%

What do the screens show for `O=C(CCCN1C(=O)c2cccc3cccc(c23)C1=O)N1CCN(c2ccc(F)cc2)CC1`?
Menin MLL FP FL: -8.7; gsp antagonist: inconclusive; TRPML1 ag: 0.2; TRPML1 blocker: 7.9; gsp agonist: 1.3%[15.4 µM]; ClpP mod: 0.4%

How did Cc1nc2sccn2c(=O)c1S(=O)(=O)N1CCN(c2cccc(C(F)(F)F)c2)CC1 do in these assays?
Menin MLL FP FL: 2.5; gsp antagonist: -23.4%; TRPML1 ag: -0.1; TRPML1 blocker: 2.3; gsp agonist: 2.7%; ClpP mod: -1.5%

How did C#CCOCCOCCOCCNc1nc(N2CCN(C(=O)C([C@@H](C)CC)n3cc(C(N)CO)nn3)CC2)nc(N2CCN(C(=O)C([C@@H](C)CC)n3cc(C(N)COC(=O)C(F)(F)F)nn3)CC2)n1 (stereo partly specified) do in these assays?
gsp antagonist: 4.7%; TRPML1 ag: 0.4; TRPML1 blocker: 3.5; ClpP mod: -0.9%

Results for CN(C)CCCNc1oc(-c2ccccc2Cl)nc1S(=O)(=O)c1ccccc1 ?
gsp antagonist: -19.3%; TRPML1 ag: 0.0; TRPML1 blocker: 3.9; gsp agonist: -25.9%; ClpP mod: -1.3%

What do the screens show for `CCOc1ccc(CN(C)CC(=O)NCc2ccccc2Cl)cc1`?
Menin MLL FP FL: 4.4; gsp antagonist: -14.6%; TRPML1 ag: 2.3; TRPML1 blocker: 4.3; gsp agonist: -3.7%[15.4 µM]

How did O=C(Nc1ccccc1)c1ccc2c(O)c(S(=O)(=O)c3ccc(Cl)cc3)c(=O)[nH]c2c1 do in these assays?
TRPML1 ag: -0.3; TRPML1 blocker: 4.6; ClpP mod: -15.9%

Results for COc1ccc(OC)c(NC(=O)CCNC(=O)c2ccco2)c1 ?
Menin MLL FP FL: 1.6; gsp antagonist: 3.8%; TRPML1 ag: -0.4; TRPML1 blocker: -10.4; gsp agonist: -16.8%

What do the screens show for `Cn1c(=O)[nH]c(=O)c2c1nc(N1CCC(Cc3ccccc3)CC1)n2Cc1ccccc1`?
Menin MLL FP FL: 1.2; gsp antagonist: -22.0%; TRPML1 ag: -0.6; TRPML1 blocker: 35.3; gsp agonist: -47.3%[inhibitor]; ClpP mod: -6.7%

What do the screens show for `CC(C)Oc1cccc(C(=O)Nc2ccc(N3CCN(S(C)(=O)=O)CC3)cc2)c1`?
Menin MLL FP FL: -1.2; gsp antagonist: 4.8%; TRPML1 ag: -0.1; TRPML1 blocker: -0.8; gsp agonist: -11.7%; ClpP mod: -0.4%

What do the screens show for `Cc1ccc(C(=O)c2c3ccccc3[n+]([O-])n2CCO)cc1`?
gsp antagonist: -4.9%; TRPML1 ag: -0.5; TRPML1 blocker: -2.7; gsp agonist: 10.8%; ClpP mod: -1.1%

What do the screens show for `CC(=O)Nc1ccc(S(=O)(=O)NCCC(=O)Nc2ncccc2C)cc1`?
gsp antagonist: 0.5%; TRPML1 ag: -0.2; TRPML1 blocker: -13.2; gsp agonist: -1.5%[15.4 µM]; ClpP mod: 1.7%

How did NC(=O)c1ccc(NC(=O)COC(=O)/C=C/c2cccs2)cc1 do in these assays?
Menin MLL FP FL: -0.8; gsp antagonist: 1.7%; TRPML1 ag: -0.1; TRPML1 blocker: 3.8; gsp agonist: -0.6%[15.4 µM]

Results for COc1ccc(S(=O)(=O)n2nc(OC(=O)c3ccccc3)cc2N)cc1 ?
Menin MLL FP FL: -0.8; gsp antagonist: 16.5%; TRPML1 ag: 1.4; TRPML1 blocker: -5.0; gsp agonist: 7.8%; ClpP mod: -1.4%

What do the screens show for `Cc1ccc2nc3c(c(C(=O)OCC(=O)NC4CCS(=O)(=O)C4)c2c1)CCCC3` (stereo unspecified)?
Menin MLL FP FL: -1.3; TRPML1 ag: 0.0; TRPML1 blocker: -3.9; gsp agonist: 8.9%[15.4 µM]

What do the screens show for `O=C(CSc1nc2ccc(Nc3nc(N4CCOCC4)nc(N4CCOCC4)n3)cc2s1)Nc1ccccc1Cl`?
Menin MLL FP FL: -0.7; gsp antagonist: -3.9%; TRPML1 ag: inconclusive; TRPML1 blocker: -1.4; gsp agonist: -60.2%[inhibitor]; ClpP mod: -4.1%

Results for Cc1nnc(SCC(=O)NCC2CCCO2)n1Cc1ccccc1 (stereo unspecified) ?
gsp antagonist: 2.6%; TRPML1 ag: 0.6; TRPML1 blocker: 0.1; gsp agonist: 9.3%

What do the screens show for `Cc1ccccc1OCc1nc2ccccc2n1Cc1ccccc1Cl`?
TRPML1 ag: 2.3; TRPML1 blocker: 11.9; ClpP mod: -1.7%

How did COCCCNS(=O)(=O)c1ccc(N2CCCCS2(=O)=O)cc1 do in these assays?
TRPML1 ag: -0.2; TRPML1 blocker: -2.4; ClpP mod: 1.6%

Results for Cc1cc(NCCOCCO)n2ncc(-c3ccc(Cl)cc3)c2n1 ?
Menin MLL FP FL: -0.2; gsp antagonist: 10.3%; TRPML1 ag: 0.2; TRPML1 blocker: 3.3; gsp agonist: -5.0%; ClpP mod: inconclusive

Results for CC(C)(C)CN1C(N)=NC[C@@H]1c1ccccc1 ?
gsp antagonist: 10.8%; TRPML1 ag: -0.2; TRPML1 blocker: 11.6; gsp agonist: 14.7%; ClpP mod: -0.1%

What do the screens show for `OC1(CN2CCOCC2)C2CN3CCN(C2)CC1(c1ccccc1)C3` (stereo unspecified)?
Menin MLL FP FL: 2.0; gsp antagonist: 7.3%; TRPML1 ag: -0.2; TRPML1 blocker: 1.9; gsp agonist: 41.1%; ClpP mod: -3.9%

What do the screens show for `COc1ccc(-c2c(C)n([O-])c(C)c(C)[n+]2=O)cc1`?
Menin MLL FP FL: 5.2; gsp antagonist: 3.4%; TRPML1 ag: -0.8; TRPML1 blocker: -13.4; gsp agonist: inconclusive; ClpP mod: -2.5%

How did Cc1ccccc1C(=O)NC1CCN(C(=O)N(c2ccccc2)c2ccccc2)CC1 do in these assays?
Menin MLL FP FL: 2.2; gsp antagonist: -9.7%; TRPML1 ag: 1.2; TRPML1 blocker: 7.3; gsp agonist: -29.9%; ClpP mod: 0.4%

How did Cc1ccc(C(=O)Nn2c(O)c(C=C3N=c4ccccc4=N3)sc2=S)cc1 do in these assays?
Menin MLL FP FL: 10.2; gsp antagonist: 3.1%; TRPML1 ag: 0.6; TRPML1 blocker: -4.5; gsp agonist: 29.6%; ClpP mod: 0.4%

Results for CCOc1ccc(C(=O)Nc2ccc3nc(SCC(=O)N4CCOCC4)sc3c2)cc1 ?
TRPML1 ag: 3.2; TRPML1 blocker: -21.3; ClpP mod: -5.0%

What do the screens show for `CCN1CCN(c2ccc(NC(=O)c3cccc(F)c3)cc2Cl)CC1`?
Menin MLL FP FL: -8.0; gsp antagonist: 4.9%; TRPML1 ag: -0.5; TRPML1 blocker: 11.2; gsp agonist: 8.9%[15.4 µM]

How did O=C1C=C(c2ccc3ccccc3c2)C[C@@H](c2ccc(Cl)cc2)C1 do in these assays?
gsp antagonist: -1.6%; TRPML1 ag: 0.6; TRPML1 blocker: 27.8; ClpP mod: -2.9%

Results for CCOC(=O)CC(=O)CSc1ncc(C(=O)OCC)c(N)n1 ?
Menin MLL FP FL: 3.7; gsp antagonist: -2.2%; TRPML1 ag: -0.8; TRPML1 blocker: 11.9; gsp agonist: 14.8%; ClpP mod: -11.6%

How did O=C(Nc1cccc(C(F)(F)F)c1)C1=CC=CN2CCS(=O)(=O)N=C12 do in these assays?
gsp antagonist: -2.9%; TRPML1 ag: 0.0; TRPML1 blocker: 13.0; gsp agonist: 2.6%; ClpP mod: -4.1%

Results for O=C(NCCCCCCNC(=O)c1ccc(Br)s1)c1ccc(Br)s1 ?
Menin MLL FP FL: 1.3; gsp antagonist: -22.7%; TRPML1 ag: -0.1; TRPML1 blocker: 5.6; gsp agonist: -7.9%; ClpP mod: 1.7%

How did C=CCc1cccc(CNc2cnc3ccccc3c2)c1O do in these assays?
Menin MLL FP FL: -0.4; gsp antagonist: -23.5%; gsp agonist: -53.9%[inhibitor]; ClpP mod: 4.0%

What do the screens show for `COc1ccccc1N1CCN(c2nc3ccccc3nc2C(C#N)C(=O)OC(C)C)CC1` (stereo unspecified)?
Menin MLL FP FL: 3.3; gsp antagonist: -11.6%; TRPML1 ag: 0.4; TRPML1 blocker: 19.7; gsp agonist: -40.4%[inhibitor]; ClpP mod: 1.2%

Results for CS(=O)(=O)Nc1ccccc1C(=O)OCC(=O)NCc1cccs1 ?
gsp antagonist: 5.4%; TRPML1 ag: -0.4; TRPML1 blocker: -3.6; gsp agonist: 1.1%[15.4 µM]; ClpP mod: 1.1%

Results for COc1cccc(NC(=O)C2CCCN2C(=O)Nc2ccccc2)c1 (stereo unspecified) ?
Menin MLL FP FL: 2.5; gsp antagonist: 8.2%; TRPML1 ag: -1.3; TRPML1 blocker: 7.9; gsp agonist: -3.2%[15.4 µM]; ClpP mod: 0.6%
